# Vaccinia inh: blocks a specific stage of Vaccinia orthopoxvirus infection | activity change (mCherry), % (no concentration beside the values) | AID 1053133 | actives 0.01% (n = 89,000) | Vaccinia-infected cells, mCherry/Venus stage reporter fluorescence; stronger effect = lower value; some inactives read as strong as hits;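 active = mCherry past -33% and 40 or more points under the early reporter, replicates agreeing; inconclusive = past -33% without that gap or agreement; tested in A549 cells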;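 note: scaled between vehicle wells and reference inhibitor wells; 23 nL library stock went into each well; one replicate is shown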
# Vaccinia inh Venus: also measured in Vaccinia inh; calls as there; activity change (Venus), %; measured here: Venus reporter, other viral stage;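 negative = less Venus signal; first of two replicates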
# Numbers without * were called inactive; u = inconclusive; x = no result given; & = joins results of further samples. Not all compounds are listed. The share of hits here may be higher or lower than overall.
Molecule,Vaccinia inh,Vaccinia inh Venus
Cc1noc(C)c1S(=O)(=O)Nc1cccc2c1O[C@@H](CN(C)S(=O)(=O)c1cccs1)[C@@H](C)CN([C@@H](C)CO)C2=O,12.2,9.2
O=C(C[C@H]1CC[C@@H]2[C@H](COC[C@@H](O)CN2C(=O)Nc2cc(Cl)cc(Cl)c2)O1)NCC1CC1,-14.0,-14.8
CO[C@@H]1CN(C)C(=O)c2cc(NC(=O)C3CC3)ccc2OC[C@H](C)N(Cc2cc(F)ccc2F)C[C@H]1C,-34.8,-20.8
COc1cccc(S(=O)(=O)Nc2ccc3c(c2)OC[C@H](C)N(C(=O)Cc2cccnc2)C[C@H](C)[C@@H](OC)CN(C)C3=O)c1,26.0,24.4
C[C@@H]1CN([C@@H](C)CO)C(=O)c2cc(NC(=O)Nc3cccc4ccccc34)ccc2O[C@@H](C)CCCCO[C@H]1CN(C)S(=O)(=O)c1ccc(F)cc1,17.7,13.6
CCC(=O)Nc1ccc2c(c1)C(=O)N(C)C[C@@H](OC)[C@@H](C)CN(C(=O)C1CC1)[C@@H](C)CO2,6.3,13.0
C[C@H](CO)N1C[C@H](C)[C@@H](CN(C)Cc2cncnc2)Oc2ncc(C#C[C@@H](C)O)cc2C1=O,6.5,6.8
CC(C)NC(=O)N(C)C[C@H]1OCCCC[C@@H](C)Oc2ccc(NS(=O)(=O)c3cn(C)cn3)cc2C(=O)N([C@@H](C)CO)C[C@@H]1C,10.1,5.3
C[C@H]1CN([C@@H](C)CO)C(=O)c2cccc(NC(=O)C3CCCCC3)c2O[C@H]1CN(C)C(=O)Nc1cccc2ccccc12,20.2,15.6
CCCNC(=O)N1[C@@H]2Cn3c(ccc(-c4cccc(OC)c4)c3=O)[C@H]1[C@@H](C(=O)NCC)[C@@H]2CO,-3.7,1.5
CCCNC(=O)C[C@H]1C[C@@H]2c3cc(N(C)C)ccc3O[C@@H]2[C@H](CO)O1,5.6,14.2
C[C@@H]1CN([C@H](C)CO)S(=O)(=O)c2ccc(-c3cncnc3)cc2O[C@@H]1CN(C)Cc1ccncc1,8.8,0.7
Cc1ccccc1-c1ccc([C@H]2[C@@H](CO)N3CCCCN(C(=O)NC4CCCC4)C[C@@H]23)cc1,u,x
O=C(Nc1ccc(F)cc1)N1CC(=O)N2[C@H](CO)[C@@H](c3ccc(C#CC4CC4)cc3)[C@@H]2C1,-20.7,-16.2
N#C[C@H]1[C@@H](c2ccc(C#Cc3cccc(F)c3)cc2)[C@@H](CO)N1C(=O)C1CCOCC1,3.4,5.6
C[C@@H]1CCCCO[C@H](CN(C)S(=O)(=O)c2ccc(Cl)cc2)[C@@H](C)CN([C@@H](C)CO)C(=O)c2cc(NC(=O)Nc3ccc4c(c3)OCO4)ccc2O1,-6.0,2.1

# A draw from above in order of number of heavy atoms, falling:
Molecule,Vaccinia inh,Vaccinia inh Venus
C[C@@H]1CCCCO[C@H](CN(C)S(=O)(=O)c2ccc(Cl)cc2)[C@@H](C)CN([C@@H](C)CO)C(=O)c2cc(NC(=O)Nc3ccc4c(c3)OCO4)ccc2O1,-6.0,2.1
N#C[C@H]1[C@@H](c2ccc(C#Cc3cccc(F)c3)cc2)[C@@H](CO)N1C(=O)C1CCOCC1,3.4,5.6
CCCNC(=O)C[C@H]1C[C@@H]2c3cc(N(C)C)ccc3O[C@@H]2[C@H](CO)O1,5.6,14.2

# (more compounds)
Molecule,Vaccinia inh,Vaccinia inh Venus
COc1ccccc1S(=O)(=O)N(C)C[C@H]1Oc2cc(/C=C/c3ccccc3)ccc2S(=O)(=O)N([C@H](C)CO)C[C@@H]1C,2.8,-1.6
C/C=C/c1cnc2c(c1)C(=O)N([C@@H](C)CO)C[C@@H](C)[C@@H](CN(C)C(=O)NCCC)O2,28.2,3.4
C[C@@H](O)C#Cc1ccc([C@H]2[C@@H](CO)N3CCCCN(C(=O)Nc4ccccc4)C[C@H]23)cc1,3.8,3.5
C[C@@H]1CN([C@H](C)CO)S(=O)(=O)c2ccc(-c3cncnc3)cc2O[C@H]1CN(C)C,20.1,11.8
COc1ccc(NC(=O)Nc2ccc3c(c2)[C@@H]2C[C@H](CC(=O)NCc4ccc5c(c4)OCO5)O[C@@H](CO)[C@@H]2O3)cc1,10.5,11.6
CO[C@H]1CN(C)C(=O)c2cc(C#N)ccc2OC[C@H]2O[C@@H](CC[C@@H]2OC)CCN(C)C(=O)[C@H]1C,14.2,7.6
O=C(C1CCOCC1)N1CC(=O)N2[C@H](CO)[C@H](c3ccc(/C=C/c4ccccc4)cc3)[C@@H]2C1,-2.5,4.5
O=C(C[C@@H]1C[C@@H]2c3cc(NS(=O)(=O)c4ccc(F)cc4)ccc3O[C@@H]2[C@H](CO)O1)NCc1ccc(-c2ccccc2)cc1,u,x
C[C@@H]1CN([C@@H](C)CO)S(=O)(=O)c2ccc(Br)cc2O[C@@H]1CN(C)Cc1cccnc1,-4.4&-12.9,-8.7&-16.1
O=C(NC[C@H]1[C@H](c2ccccc2)[C@H](CO)N1Cc1ccccn1)C1CC1,1.8,8.6
C[C@@H]1CCCCO[C@H](CN(C)C(=O)c2ccncc2)[C@H](C)CN([C@@H](C)CO)C(=O)c2cc(NS(=O)(=O)c3ccc(F)cc3)ccc2O1,34.1,7.2
O=C(NCC1CC1)[C@@H]1[C@@H](CO)[C@@H]2Cn3c(ccc(C4=CCCC4)c3=O)[C@@H]2N1Cc1ccccc1F,-2.7,17.3
CCNC(=O)C[C@H]1CC[C@H]2[C@@H](COc3ccc(NS(=O)(=O)c4ccccc4C)cc3C(=O)N2C)O1,9.2,0.7
CC(C)NC(=O)N[C@@H]1C=C[C@@H](CC(=O)NCCCN(C)C)O[C@@H]1CO,-11.2,-8.5
C[C@@H]1CN([C@@H](C)CO)C(=O)c2cc(C#CC3(O)CCCC3)cnc2O[C@@H]1CN(C)Cc1cccnc1,14.5,5.8
Cc1ccccc1S(=O)(=O)NCC[C@H]1CC[C@@H](NC(=O)C2CCC2)[C@@H](CO)O1,-2.7,7.0
CC(C)NC(=O)N1CCCCN2[C@H](CO)[C@@H](c3ccc(Br)cc3)[C@H]2C1,13.8,-3.7
O=C(C1CCOCC1)N1C[C@@H]2[C@H](c3ccccc31)[C@H](CO)N2Cc1ccccc1Cl,-3.0,1.7
O=C(C[C@@H]1CC[C@@H](NC(=O)Nc2ccc(C(F)(F)F)cc2)[C@@H](CO)O1)NCc1cccc(F)c1,-12.2,-14.0
O=C(Nc1ccc(F)cc1)N1CC(=O)N2[C@@H](CO)[C@H](c3ccc(-c4cccc(F)c4)cc3)[C@@H]2C1,-25.3,-11.1
Cc1ccc(-c2ccc([C@@H]3[C@@H](CO)N4C(=O)CN(C(=O)c5ccccc5)C[C@H]34)cc2)cc1,-26.4,-13.0
C[C@@H]1CN([C@H](C)CO)C(=O)c2cc(NC(=O)CCC(F)(F)F)ccc2O[C@@H](C)CCCCO[C@H]1CN(C)S(=O)(=O)c1cccs1,-11.8,-10.4
CO[C@@H]1CC[C@@H]2CCN(C)C(=O)[C@H](C)N(C)C(=O)c3cccc(C#N)c3OC[C@@H]1O2,3.5,-2.8
COc1ccc(S(=O)(=O)N(C)C[C@H]2Oc3c(NC(=O)c4cc(C)nn4C)cccc3C(=O)N([C@@H](C)CO)C[C@H]2C)cc1,-5.2,-7.1
C=CCNC(=O)[C@H]1[C@@H]2C(=O)O[C@@H](c3ccccc3)[C@@H](c3ccccc3)N2[C@@H](c2ccc(O)cc2)[C@]12C(=O)Nc1ccc(C#CCCO)cc12,21.0,17.3
C[C@H]1CN([C@@H](C)CO)C(=O)c2cc(NC(=O)CCCN(C)C)ccc2O[C@@H]1CN(C)S(=O)(=O)c1cn(C)cn1,15.2,10.7
C[C@@H]1CN([C@H](C)CO)C(=O)c2cc(-c3cncnc3)cnc2O[C@H]1CN(C)C(=O)Nc1ccc2c(c1)OCO2,25.5,14.1
COCC(=O)N1C[C@@H](C)[C@@H](OC)CN(C)C(=O)c2ccc(NC(=O)c3cc(C)on3)cc2OC[C@H]1C,5.8,5.9
O=C(Nc1ccc(F)cc1)N1CC(=O)N2[C@H](CO)[C@H](c3ccc(-c4ccc(F)cc4)cc3)[C@H]2C1,-28.6,-19.9
CO[C@@H]1CN(C)C(=O)c2ccc(NC(=O)C3CC3)cc2OC[C@H](C)N(C(=O)c2ccccc2)C[C@@H]1C,10.2,13.6
CCNC(=O)Nc1ccc2c(c1)C(=O)N(C)[C@@H]1CC[C@@H](CC(=O)N[C@H](C)c3ccccc3)O[C@H]1CO2,0.9,-5.3
COc1ccccc1NC(=O)N[C@H]1CC[C@H](CCNS(=O)(=O)c2ccc(Cl)cc2)O[C@H]1CO,-16.1,-12.1

# One compound at a time, from the list above. Order of values: Vaccinia inh, Vaccinia inh Venus
# Results for `C=CCNC(=O)[C@H]1[C@@H]2C(=O)O[C@@H](c3ccccc3)[C@@H](c3ccccc3)N2[C@@H](c2ccc(O)cc2)[C@]12C(=O)Nc1ccc(C#CCCO)cc12` : 21.0, 17.3
# Results for `COc1ccccc1NC(=O)N[C@H]1CC[C@H](CCNS(=O)(=O)c2ccc(Cl)cc2)O[C@H]1CO` : -16.1, -12.1
# Results for `CO[C@@H]1CN(C)C(=O)c2ccc(NC(=O)C3CC3)cc2OC[C@H](C)N(C(=O)c2ccccc2)C[C@@H]1C` : 10.2, 13.6
# Results for `C[C@H]1CN([C@@H](C)CO)C(=O)c2cc(NC(=O)CCCN(C)C)ccc2O[C@@H]1CN(C)S(=O)(=O)c1cn(C)cn1` : 15.2, 10.7
# Results for `COCC(=O)N1C[C@@H](C)[C@@H](OC)CN(C)C(=O)c2ccc(NC(=O)c3cc(C)on3)cc2OC[C@H]1C` : 5.8, 5.9

# More results.
Molecule,Vaccinia inh,Vaccinia inh Venus
Cc1cccc(-c2ccc([C@@H]3[C@@H](CO)N4CCCCN(S(=O)(=O)c5cccc(C)c5)C[C@@H]34)cc2)c1,6.5,1.2
COc1ccc(NC(=O)N(C)C[C@@H]2Oc3c(NC(=O)Nc4ccc(F)cc4)cccc3C(=O)N([C@H](C)CO)C[C@@H]2C)cc1,-22.2,-19.1
C[C@@H]1CN([C@H](C)CO)C(=O)Cc2cc(NC(=O)CCCCCC(=O)Nc3ccccc3N)ccc2O[C@@H]1CN(C)Cc1ccc2c(c1)OCO2,28.3,5.7
C[C@H](CO)N1C[C@H](C)[C@@H](CN(C)S(=O)(=O)c2cn(C)cn2)Oc2ccc(NC(=O)C3CC3)cc2C1=O,31.4,19.8
O=C(C[C@@H]1C[C@H]2c3cc(NC(=O)c4ccc5c(c4)OCO5)ccc3O[C@H]2[C@H](CO)O1)NCCN1CCCCC1,18.3,14.6
CO[C@@H]1CN(C)C(=O)c2cc(NC(=O)c3ccc4c(c3)OCO4)ccc2OC[C@@H](C)N(CCC(F)(F)F)C[C@H]1C,u,x
C[C@@H]1CN([C@@H](C)CO)C(=O)c2cc(NC(=O)CCC(F)(F)F)ccc2O[C@@H](C)CCCCO[C@H]1CN(C)S(=O)(=O)c1ccc(Cl)cc1,-22.9,-19.6
N#C[C@H]1[C@@H](c2ccccc2C2=CCCCC2)[C@@H](CO)N1C(=O)NC1CCCC1,1.8,-0.9
OC[C@@H]1[C@@H](c2ccc(/C=C/c3ccccc3)cc2)[C@H]2CN(Cc3ccncc3)CCCCN12,-30.6,-18.2
O=C(C[C@@H]1CC[C@@H]2[C@H](COC[C@@H](O)CN2Cc2cc(F)cc(F)c2)O1)Nc1nccs1,-13.1,-9.3
CC(C)CC#Cc1ccc2c(c1)O[C@H](CN(C)C(=O)Cc1cccnc1)[C@H](C)CN([C@H](C)CO)S2(=O)=O,u,x
COc1ccc(-c2ccc(C3[C@H]4CNC[C@@H]3N4S(=O)(=O)c3cccc(Cl)c3)cc2)cc1 (stereo partly drawn),-4.8,11.7
O=C(Nc1ccc(F)cc1)N[C@@H]1C=C[C@@H](CC(=O)N2CCOCC2)O[C@@H]1CO,-1.6,14.4
C[C@@H]1CCCCO[C@@H](CN(C)C(=O)c2ccccc2)[C@@H](C)CN([C@@H](C)CO)C(=O)c2cc(NC(=O)Nc3cccc4ccccc34)ccc2O1,14.6,15.0
COc1cccc(-c2cnc3c(c2)C(=O)N([C@H](C)CO)C[C@H](C)[C@H](CN(C)C(=O)NC2CCCCC2)O3)c1,-2.0,9.3
CC(C)NC(=O)N1CC2(C1)[C@H](c1ccccc1)[C@@H](CO)N2CCC(F)(F)F,8.7,17.3
C[C@@H]1CN([C@@H](C)CO)S(=O)(=O)c2ccc(C#C[C@@H](C)O)cc2O[C@H]1CN(C)Cc1ccncc1,-10.0,-12.6
Cc1ccc(S(=O)(=O)N(C)C[C@H]2Oc3cc(-c4cccc(F)c4)ccc3S(=O)(=O)N([C@H](C)CO)C[C@H]2C)cc1,-26.6,-28.5
COc1ccccc1C#Cc1ccc2c(c1)O[C@H](CN(C)C)[C@H](C)CN([C@H](C)CO)S2(=O)=O,u,x
C[C@@H]1CCCCO[C@@H](CN(C)CC2CCCCC2)[C@H](C)CN([C@H](C)CO)C(=O)c2cc(NC(=O)Cc3ccccc3)ccc2O1,u,x
CCC(=O)N1CC[C@H]2[C@@H]1c1cc(-c3ccc(F)cc3)ccc1N(C)[C@H]2CO,-1.3,-2.3
C[C@@H]1CN([C@H](C)CO)C(=O)c2cc(NS(=O)(=O)c3ccc(Cl)cc3)ccc2O[C@H]1CN(C)Cc1ccc2c(c1)OCO2,-4.0,-6.5
CCCNC(=O)C[C@H]1CC[C@@H]2[C@H](COC[C@@H](O)CN2C(=O)c2ccccn2)O1,13.8,3.6
O=C(C[C@@H]1C=C[C@@H](NC(=O)c2ccccn2)[C@@H](CO)O1)NCc1cccc(F)c1,5.7,-3.7
Cc1ccc(S(=O)(=O)Nc2cccc3c2O[C@@H](CN(C)CC2CCCCC2)[C@@H](C)CN([C@H](C)CO)C3=O)cc1,-23.7,-15.8
CCCNC(=O)N[C@H]1CC[C@H](CC(=O)N2CCN(C)CC2)O[C@@H]1CO,0.9,7.5
CNC[C@H]1OCCCC[C@H](C)Oc2ccc(NC(=O)NC(C)C)cc2C(=O)N([C@@H](C)CO)C[C@@H]1C,18.6,20.1

# Compound activity: PubChem, Broad Institute
